# Compound activity from PubChem BioAssay.
# Six1-Eya2 inh – blocks human Six1 binding to Eya2. activity change, % (test concentration not listed). AID 651725. hit rate 0.56% among 360,000. AlphaScreen GST-Six1/His-Eya2 binding, biochemical; hits give low values; control for the full effect not named in the record; in the data active = activity change below about -65%; inconclusive = about -30% to -65%; inactive = above about -30%; note: % is set by controls: 0 for no effect and ±100 for the full control effect; compound concentration not given in the record
#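 AlphaScreen with GST-Six1 and His-Eya2 (5X mix: 250 nM and 500 nM), glutathione donor and nickel acceptor beads; buffer 50 mM Tris pH 8.0, 300 mM NaCl, 1 mM TCEP; 1 h at 37 C in the dark.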
# PINK1 expr mod – PINK1 expression modulation | PINK1 immunofluorescence, high-content cytometry, 24 h | Potency, µM (top dose mostly 76.6 µM), for the others: at the highest dose activation (PINK1 increase), usual class: activators | hit rate 0.2% among 410,000; active = well fitted activation curve with a large enough effect; inconclusive = small, poorly fitted or top-dose-only effect; inactive = flat fitted curve, though single readings scatter; cell line not stated here;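 note: potency is the fitted concentration of half-maximal effect; % of control where 0% means no effect; nearly all actives have a fitted effect of over 65% in size; a mitochondrial uncoupler was the plate control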
#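 PINK1 protein level read as immunofluorescence by microplate cytometer in a fixed, stained stable cell line after 24 h exposure to five compound concentrations, with CCCP as control.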
# TRPV1 potentiator – human TRPV1 potentiation; Q8NER1; TRPV1-expressing cells, Fluo-8 calcium influx, capsaicin EC20 potentiation; host cell line not named in the record; control for the full effect not named in the record; potentiation, % at 8.33 µM; hit rate 0.02% among 320,000; AID 540277; active means potentiation above 80%; inconclusive means 30% to 80%; inactive means below 30%; note: 0% is about no effect
# Target sequence (Q8NER1 whole entry, looked up): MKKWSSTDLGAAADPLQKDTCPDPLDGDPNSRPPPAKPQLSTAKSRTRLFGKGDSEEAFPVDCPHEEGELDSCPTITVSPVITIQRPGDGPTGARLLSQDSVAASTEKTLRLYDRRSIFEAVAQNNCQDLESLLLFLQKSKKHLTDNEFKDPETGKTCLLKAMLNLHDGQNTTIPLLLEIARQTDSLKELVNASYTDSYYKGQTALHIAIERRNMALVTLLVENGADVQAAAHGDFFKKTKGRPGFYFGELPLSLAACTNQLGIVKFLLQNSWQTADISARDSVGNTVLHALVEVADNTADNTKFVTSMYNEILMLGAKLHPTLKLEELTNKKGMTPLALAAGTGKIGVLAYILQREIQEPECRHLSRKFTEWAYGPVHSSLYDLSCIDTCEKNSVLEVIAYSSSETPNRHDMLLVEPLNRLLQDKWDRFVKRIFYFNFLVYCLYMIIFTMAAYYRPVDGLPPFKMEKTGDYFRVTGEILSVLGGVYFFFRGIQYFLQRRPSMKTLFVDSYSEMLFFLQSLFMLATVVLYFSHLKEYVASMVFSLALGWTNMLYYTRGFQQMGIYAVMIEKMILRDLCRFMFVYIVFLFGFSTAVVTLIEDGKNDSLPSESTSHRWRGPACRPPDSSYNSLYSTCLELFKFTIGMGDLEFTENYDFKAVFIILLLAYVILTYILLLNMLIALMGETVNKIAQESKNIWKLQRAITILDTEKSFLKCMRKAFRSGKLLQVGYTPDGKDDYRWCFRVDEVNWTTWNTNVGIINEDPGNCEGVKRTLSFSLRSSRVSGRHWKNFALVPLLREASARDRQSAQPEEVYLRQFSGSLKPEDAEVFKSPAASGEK
#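 Cells expressing TRPV1 were dye-loaded with Fluo-8 and read kinetically: 10 s baseline, 3 min after compound (agonist portion), then 2 min after EC20 capsaicin (allosteric enhancer portion). Calcium-bound dye fluorescence at 480/520 nm.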
# Sfp PPTase inh – inhibitors of Bacillus subtilis Sfp phosphopantetheinyl transferase. Q9F4F7. Biochemical Sfp PPTase activity, qHTS. Potency, µM, for inactives: max response, negative = inhibition, usual class: inhibitors. hit rate 3.5% among 310,000; active = well fitted inhibition curve with a large enough effect; inconclusive = small, poorly fitted or top-dose-only effect, or another doubt; inactive = no such curve, though single readings can be large or run the other way;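 note: the enzyme is Sfp with the accession as filed and its product quenches rhodamine fluorescence; potency is the fitted concentration of half-maximal effect; 0% = enzyme reaction without inhibitor and -100% = no enzyme wells; top concentration of the series not given in the record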
#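 Compounds were incubated with enzyme (final 15 nM) for 15 min at room temperature before substrate addition started the reaction. Fluorescence at 525 nm excitation, 598 nm emission was recorded immediately and after 30 minutes.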
# D2 ag – agonists of human D2 dopamine receptor (beta-arrestin); P14416; DiscoveRx PathHunter D2 beta-arrestin, luminescence, 90 min; 100% = 57 uM dopamine signal; activation, % (concentration not given with the values); hit rate 0.084% among 360,000; AID 624465; in the data active = activation above about 40%; inconclusive = about 15% to 40%; inactive = below about 15%; note: compound concentration not given in the record; the text of the record calls up to 30% inactive
#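 DiscoveRx PathHunter D2 beta-arrestin cells (2,100/well) attached overnight, then compound-stimulated 90 min at 37 C in HBSS/10 mM HEPES/0.1% Tween-20 buffer; beta-galactosidase complementation read by luminescence after 1 h at ambient temperature. Dopamine 57 uM final (EC100) as control.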
# D2 potentiator – positive allosteric modulators of human D2 dopamine receptor; hit rate 0.23% among 360,000; AID 624464; potentiation, % (no concentration beside the values); DiscoveRx D2 beta-arrestin cells, luminescence, 90 min; 100% = 57 uM dopamine signal; active = potentiation of 50% or more; inconclusive = 30% to 50%; inactive = 30% or less;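 note: compound concentration not given in the record; tested on top of an EC20 dose of dopamine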
#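 PathHunter D2 cells, attached overnight at 37 deg C, received compound in DMSO plus dopamine at EC20 (50 nM final) for 90 min at 37 deg C. Beta-arrestin recruitment was read as luminescence after 1 h with detection reagent at ambient temperature.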
# CtBP-E1A blk – CtBP/E1A binding inhibition. AlphaScreen GST-E1A/His-CtBP binding, 1536-well; hits give low values; control for the full effect not named in the record. AID 651724. hit rate 0.49% among 340,000. activity change, % (concentration not given with the values); in the data active means activity change below about -65%; inconclusive means about -30% to -65%; inactive means above about -30%; note: % is set by controls: 0 for no effect and ±100 for the full control effect
#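 Homogeneous bead-based format: GST-tagged E1A captured on glutathione donor beads, His-tagged CtBP on nickel acceptor beads; compounds precede bead addition by 2 h at 37 °C.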
# * = called active by the depositor; ? = inconclusive; . = no result given; [ ] = remark or other dose.
SMILES,Six1-Eya2 inh,PINK1 expr mod,TRPV1 potentiator,Sfp PPTase inh,D2 ag,D2 potentiator,CtBP-E1A blk
O=C(O)c1ccccc1NS(=O)(=O)c1ccc2c3c(cccc13)C(=O)N2,-25,-0.8%,-4,8%,-4.3,-9,-28
Cc1cc(C)cc(NC(=O)C(c2ccccc2)N2CCN(CC(=O)N3CCCC3)CC2)c1 (stereo not given),8,-2.3%,-3,.,-3.2,-15,3
COCCn1c(SCC(=O)Nc2ccc(F)cc2F)nc2c([nH]c3ccccc32)c1=O,9,15%,-5,-1%,-2.1,8,-2
COc1ccccc1NC(=O)c1cc2ccccc2nc1C,2,-0.5%,-6,19%,0.3,-3,2
O=C(O)c1cc2nc(C3CC3)cc(C(F)(F)F)n2n1,19,2.0%,.,-3%,-5.2,-5,29
C1CCC(n2nnnc2CN2CCN(C3CCCC3)CC2)CC1,4,0.2%,7,24%,1.2,-12,0
CCCc1nnc(SCC(=O)Nc2ccc(C(=O)OCC)cc2)o1,11,-1.2%,-1,6%,-3.1,2,1
CCn1c(=O)n(CC)c2cc(S(N)(=O)=O)ccc21,0,2.0%,-19,14%,-2.6,0,2
Cn1c(Oc2ccccc2NCc2cccc(Br)c2)cc(=O)n(C)c1=O,-9,0.1%,4,-12%,-1.1,-4,0
COc1cc(C(=O)N/N=C/c2ccccn2)cc(OC)c1OC,?,8.2%,-26,56µM*,0.8,-7,-16
Cc1nc2cc(-c3ccccc3)[nH]n2c(=O)c1C,-1,-0.5%,10,22%,-0.8,0,.
Cc1ccc(S(=O)(=O)C(c2ccccc2)c2c(C)noc2C)cc1 (stereo not given),16,3.3%,-10,6%,-3.2,-32,2
Cc1cc2c(=O)n(C)c(SCC(=O)Nc3ccccc3)nc2s1,5,4.4%,0,10%,-0.3,3,-8
O=C(CCN1C(=O)C2CCCCC2C1=O)Nc1nc(-c2ccccc2)cs1 (stereo not given),-3,1.8%,.,6%,-1.2,-6,-1
O=C(N/N=C\c1ccc(Br)cc1)c1ccc(Cn2cccn2)o1,-8,3.9%,-15,6%,-8.1,-26,-2
CCCCNC(=O)N1CCN(c2ccccc2OCC)CC1,-3,0.0%,27,-5%,-0.1,-10,-16
Cc1ccc[n+](-c2[nH]c(=O)sc2/C=N/NC(=O)c2ccccc2[O-])c1,-20,-1.3%,-5,-4%,-3.7,6,-25
COc1cccc(C(=O)Nc2ccc3c(c2)C(=O)c2ccccc2C3=O)c1,-13,3.5%,17,-8%,4.3,5,-12
Cc1cccc(C)c1NC(=S)N/N=C/c1ccc(OCCC(C)C)cc1,-9,10%,-16,13%,-6.8,-13,4
CCOC(=O)C1=C(C)N=C2SCCC(=O)N2[C@@H]1/C=C/c1ccccc1,13,-2.7%,-9,1%,-3.4,-10,0
COc1cc2nc(SCC(=O)NCc3ccco3)n(Cc3ccc(Cl)cc3)c(=O)c2cc1OC,5,?,11,?,-4.9,-12,3
COCCN(C(=O)COC(=O)C(c1ccccc1)c1ccccc1)c1c(N)n(Cc2ccccc2)c(=O)[nH]c1=O,0,2.8%,-16,.,-4.6,-14,-5
CC1CCN(c2nc(N3CCCCC3)nc(N3CCCCC3)n2)CC1,4,-1.7%,2,21%,0.1,-11,.
C[C@H](O)C(=O)C1=Nc2c(nc(N)[nH]c2=O)NC1,-10,-0.7%,6,.,-2.0,-1,-2
Cc1cccc(Cl)c1NC(=S)NN,-11,2.2%,5,-1%,-1.3,-7,-19
CC1(C(=O)Nc2ccccc2Cc2ccccc2)CCN1Cc1ccccc1Cl (stereo not given),3,?,.,.,-3.0,-5,10
CC(C)(CNC(=O)c1cccc(S(=O)(=O)NCc2ccccc2)c1)N1CCOCC1,0,?,18,.,-3.0,17,6
CCC(C)Sc1ccc(-c2nc3ccc(Cl)cn3c2NCc2ccccc2)cc1 (stereo not given),13,4.4%,.,.,1.9,-4,18
CCN(C[C@H]1N[C@@](CC)(C(=O)OC)[C@H]2C(=O)N(C)C(=O)[C@@H]12)C(=O)Nc1ccc(OC)cc1,21,-1.1%,.,.,-3.4,.,-12
CC12CCC(=O)N1C(C(=O)N1CCN(c3cccc(Cl)c3)CC1)CS2 (stereo not given),-2,3.5%,-31,.,11,6,2
CCOC(=O)c1cnc(-n2nc(C)cc2C)nc1NNc1cc(C)nc(-c2ccccc2)n1,14,?,14,13%,-3.9,4,0
COc1ccc(NC(=O)/C(=C\c2cc(OC)c(OC)cc2[N+](=O)[O-])NC(=O)c2ccccc2)cc1,0,1.5%,14,16%,-2.4,-7,-4
O=C(OCC(=O)N(C1CCCCC1)C1CCCCC1)c1ccc(Cl)nc1,-2,1.8%,-10,.,-2.7,-3,-20
COCCn1c(C)cc(C(=O)COC(=O)/C=C/c2c(C)nn(C3CCS(=O)(=O)C3)c2Cl)c1C (stereo not given),-16,3.4%,4,.,1.1,7,-8
O=C(COc1ccccc1Cl)Nc1cccnc1,8,0.8%,15,0%,3.3,-8,-5
Cc1cc(NCc2cccnc2)nc(N)n1,5,0.6%,8,13%,1.7,-8,5
CSc1ccccc1NC(=O)CN(c1ccccc1)S(=O)(=O)N(C)C,9,0.6%,-12,17%,-0.2,-9,-7
COc1ccccc1/C=C/C(=O)OCC(=O)Nc1ccc(Cl)cn1,1,1.0%,5,-12%,-1.6,-2,0
COc1ccccc1C(=O)NCC(=O)OC(C)C(=O)N(C)C1CCCCC1 (stereo not given),3,-0.7%,?,.,-2.3,-2,.
Cn1cc(Br)c(C(=O)NNC(=O)c2cccc(Br)c2)n1,0,-1.6%,8,-4%,-4.1,-11,-2
NC1=C([N+](=O)[O-])C(c2ccc3c(c2)OCO3)C2=C(CCCC2=O)O1 (stereo not given),19,1.7%,-11,17%,1.7,0,0
O=C(Nc1ccccc1)N1CCN(c2ccc(C(F)(F)F)cn2)CC1,5,0.5%,-24,18%,2.8,12,0
O=C(COC(=O)CC1c2ccccc2CCN1S(=O)(=O)c1ccccc1)Nc1ccccc1 (stereo not given),-11,-0.9%,3,27%,-0.6,-7,-6
NS(=O)(=O)c1cccc(NC(=O)c2cc(-c3cccs3)nc3ccccc23)c1,0,-0.3%,1,10%,1.6,-8,.
Cc1ccc(C(=O)NC(=S)N2CCCCCC2)cc1,1,-0.1%,5,.,-2.7,-3,3
COC(=O)c1ccccc1NC(=O)CN(c1c(C)cccc1C)S(C)(=O)=O,-2,-0.7%,0,6%,4.4,4,4
OCc1ccc(-c2cncc3nccn23)cc1,-1,-0.7%,.,.,-5.7,-2,-2
Cc1ccc(-n2nnnc2SCC(=O)N2CCN(C(=O)c3ccco3)CC2)c(C)c1,9,0.1%,-7,22%,0.5,-16,-1
S=C(NC1CC1)N1CCN(c2ccc(Cl)cc2)CC1,0,0.3%,-17,-3%,4.3,-7,7
Cc1noc(C)c1S(=O)(=O)N1Cc2ccccc2CC1C(=O)N(C)C (stereo not given),-2,3.0%,4,12%,-6.4,-4,.
# Additional entries:
SMILES,Six1-Eya2 inh,PINK1 expr mod,TRPV1 potentiator,Sfp PPTase inh,D2 ag,D2 potentiator,CtBP-E1A blk
Cc1[nH]c2ccccc2c1NC(=O)CN1CCN(c2cccc(C(F)(F)F)c2)CC1,-11,1.8%,1,-9%,1.3,-19,-17
O=C1CSC(c2cccnc2)N1c1cccc(Cl)c1 (stereo not given),0,-0.8%,1,12%,-2.0,7,0
CN(C(=O)CN1CCN(c2cc(-c3cccc4oc5ccccc5c34)ncn2)CC1)c1ccccc1,-10,-1.1%,.,.,-1.3,-14,-5
CC1CCC(NC(=O)CC(C)(C)Cc2nc3ccccc3c(=O)[nH]2)CC1 (stereo not given),0,-1.0%[38.3 µM],0,15%,-0.8,-9,12
CCOc1ccc(CNCCN2CCCC2)cc1,-8,1.7%,0,-28%,-3.9,-14,1
Cn1c(=O)c2c(ncn2CC(=O)N/N=C/C=C/c2ccccc2[N+](=O)[O-])n(C)c1=O,-1,-0.5%,-5,-6%,-1.0,-2,-5
CC1=C(C(=O)Nc2ccc(Cl)cc2)C(c2cccs2)n2nnnc2N1 (stereo not given),0,47%[38.3 µM],-9,15%,-3.9,-7,-1
COc1ccc(Cc2c(-c3cccc(Cl)c3)nc3c(C)cc(Br)cn23)c(C)c1,10,?,.,.,-7.5,-13,-6
COc1ccc(Br)cc1/C(C)=N/NC1=NCCN1,5,2.2%,-8,-7%,-4.3,-44,8
O=C(CSc1nnc(-c2cccs2)o1)N1CCc2ccccc21,-19,-1.1%,-17,7%,-2.8,-9,-12
Cc1cccc(CSc2nc3c(c(=O)[nH]2)CCCC3)c1,3,?,0,9%,2.4,-3,2
O=[N+]([O-])c1ccccc1NCCOc1ccccc1,?,1.3%,-1,-7%,-3.1,-10,14

# Of the compounds above, these have an NH in an aromatic ring.
SMILES,Six1-Eya2 inh,PINK1 expr mod,TRPV1 potentiator,Sfp PPTase inh,D2 ag,D2 potentiator,CtBP-E1A blk
COCCn1c(SCC(=O)Nc2ccc(F)cc2F)nc2c([nH]c3ccccc32)c1=O,9,15%,-5,-1%,-2.1,8,-2
Cc1nc2cc(-c3ccccc3)[nH]n2c(=O)c1C,-1,-0.5%,10,22%,-0.8,0,.
Cc1ccc[n+](-c2[nH]c(=O)sc2/C=N/NC(=O)c2ccccc2[O-])c1,-20,-1.3%,-5,-4%,-3.7,6,-25
COCCN(C(=O)COC(=O)C(c1ccccc1)c1ccccc1)c1c(N)n(Cc2ccccc2)c(=O)[nH]c1=O,0,2.8%,-16,.,-4.6,-14,-5
C[C@H](O)C(=O)C1=Nc2c(nc(N)[nH]c2=O)NC1,-10,-0.7%,6,.,-2.0,-1,-2
Cc1[nH]c2ccccc2c1NC(=O)CN1CCN(c2cccc(C(F)(F)F)c2)CC1,-11,1.8%,1,-9%,1.3,-19,-17
CC1CCC(NC(=O)CC(C)(C)Cc2nc3ccccc3c(=O)[nH]2)CC1 (stereo not given),0,-1.0%[38.3 µM],0,15%,-0.8,-9,12
Cc1cccc(CSc2nc3c(c(=O)[nH]2)CCCC3)c1,3,?,0,9%,2.4,-3,2
